Bioassay records: PubChem BioAssay, National Center for Advancing Translational Sciences (NCATS)
VACV Venus inh – inhibitors of vaccinia virus (Venus reporter); Vaccinia virus Venus reporter expression, fluorescence; 330,000 tested, 0.46% active; AID 720580; Potency, µM (top dose mostly 36.5 µM), without a hit: at the highest dose activity change, negative = inhibition, hits mostly inhibitors; active means well fitted inhibition curve with a large enough effect; inconclusive means small, poorly fitted or top-dose-only effect; inactive means no such curve, though single readings can be large or run the other way; tested in A549 cells; note: nearly all actives have a fitted effect of over 30% in size; inactives centre near -10
VACV mCherry inh – inhibitors of vaccinia virus infection (mCherry reporter signal); Vaccinia virus mCherry reporter infection, fluorescence; about a quarter of the inactives have no number; Potency, µM (top dose mostly 36.5 µM), inactives show at the top dose activity change, negative = inhibition, usual class: inhibitors; AID 720579; 310,000 tested, 0.63% active; active = well fitted inhibition curve with a large enough effect; inconclusive = small, poorly fitted or top-dose-only effect; inactive = no such curve, though single readings can be large or run the other way; tested in A549 cells; note: nearly all actives have a fitted effect of over 35% in size; inactives centre near -10
The depositor's hits bear a star; i = inactive; u = inconclusive; x = no result given; & = joins results of further samples; [ ] = remark or other dose. % is set by controls: 0 for no effect and ±100 for the full control effect; potency is the fitted concentration of half-maximal effect.

SMILES	VACV Venus inh	VACV mCherry inh
Cc1ccccc1OC(C)C(=O)NCCNC(=O)C(C)Oc1ccccc1C (stereo not drawn)	-6%	-14%
C#CCOCCOCCOCCNc1nc(OC)nc(N2CCN(C(=O)[C@H](CCC(=O)O)n3cc(C(N)CO)nn3)CC2)n1 (stereo partly drawn)	-2%	-6%
CC(C)CCNCC(=O)NC(c1ccccc1)c1ccccc1	-3%	-10%
CCCCn1c(=O)c(F)cn(Cc2ccc(OC)c([N+](=O)[O-])c2)c1=O	-2%	-13%
Cc1nc(NC(=O)CSC2=NCCS2)sc1C(=O)N(C)C	u	u
COc1ccc(C2c3c(-c4ccccc4O)n[nH]c3C(=O)N2CCc2ccc(OC)c(OC)c2)cc1 (stereo not drawn)	-30%	u
O=C(NCCc1c[nH]c2ccccc12)c1cnc2sccn2c1=O	-13%	-8%
O=C(COc1ccc(S(=O)(=O)N2CCOCC2)cc1)Nc1ccc2c(c1)OCCO2	-12%	-24%
O=C(Nc1nnc([C@@H]2C[C@H](O)[C@@H](CO)O2)s1)Nc1cccc2c1CCCC2	-7%	i
Fc1ccc(SCCc2ccncc2)cc1	-8%	i
Cc1c(CC(=O)N2CCN(C(=O)C3COc4ccccc4O3)CC2)c(=O)oc2cc(O)ccc12 (stereo not drawn)	-2%[7.34 µM]	-1%[7.34 µM]
CCCCCCN1CCN(C2CN(Cc3cn(Cc4cc(C)cc(C)c4)nn3)S(=O)(=O)C2)CC1 (stereo not drawn)	-13%	5%
CC(=O)N1CCOCCOCCOCC1	-6%	-1%
CN1OC[C@@H]2C(=O)N3CCc4c([nH]c5ccccc45)[C@@H]3C[C@@H]21	-19%	7%
CC(CCc1ccccc1)NC(=O)c1cccc(F)c1 (stereo not drawn)	-13%	i
CCn1c(O)c(N=NC(=O)CNC(=O)c2ccco2)c2ccccc21	u	-23%
CC1CCc2nc(NC(=O)C3CC3)sc2C1 (stereo not drawn)	-27%	x
CCn1cc(C(=O)Nc2ccc(C)c([N+](=O)[O-])c2)cn1	-8%	-22%
O=S(=O)(Nc1cccnc1)c1cccs1	-7%	-15%
CC1(O)CCC2C3CCC4=CC(=O)CCC4=C3C=CC21C (stereo not drawn)	-14%	u
CCOC(=O)Cn1cc(C(=O)c2cccs2)c2ccccc21	-4%	-11%
N#CCCn1cc(C(=O)Nc2ccccn2)c(-c2ccccc2)n1	2%	-11%
Cc1ccc(S(=O)(=O)N(CC(=O)Nc2cccc(C)c2C)C(=O)N2CCN(C)CC2)cc1	-12%	i
Cc1c(OCC(=O)NC(Cc2c[nH]c3ccc(O)cc23)C(=O)O)ccc2c3c(c(=O)oc12)CCC3 (stereo not drawn)	4%	11%
O=C(COC(=O)CNC(=O)c1ccc(Cl)cc1Cl)NC(=O)NCc1ccccc1	-6%	-14%
Cc1cc(C(=O)NNc2ccc(Cl)cc2)no1	-10%	-23%
Cc1ccc(S(=O)(=O)N2CCCCC2)cc1C(=O)Nc1cccnc1	0%	i
Cc1ccc(OCCNS(=O)(=O)c2ccc(N3CCCC3=O)cc2)cc1	u	x
CCOC(=O)N1CCN(C(=O)/C(=C/c2ccc(Br)cc2)NC(=O)c2ccc(OC)cc2)CC1	-19%	-9%
C#CCN(C[C@H]1[C@H](OC(=O)NCCCCCC)[C@H](OC(=O)NCCCCCC)C[C@H]2C(=O)N(c3ccccc3)C(=O)[C@@H]12)S(=O)(=O)c1ccc(C)cc1	-22%	-7%
COc1cccc(NC(=O)C2C3C=CC(C3)C2C(=O)O)c1 (stereo not drawn)	2%	-13%
O=S(=O)(c1ccccc1)N1CCN(C/C=C/c2ccccc2)CC1	-6%	-20%
COc1ccc(OC)c(N=CC2=C(O)CC(C)(C)CC2=O)c1	0%	-13%
O=C(NCc1cccnc1)c1cnn(-c2nccc(-c3cccs3)n2)c1C1CC1	-12%	-27%
COc1ccc(-c2nnc(Nc3ccc(OC)c(C(=O)N4CCCCC4)c3)c3ccccc23)cc1	u	-16%
Cc1cc(C)nc(N(C#N)Cc2ccc([N+](=O)[O-])cc2)n1	-9%	-4%
COc1ccccc1C(C)N(C)Cc1nc(COc2ccccc2)no1 (stereo not drawn)	-6%	0%
CC12CCC(C/C1=N/NC(=O)Nc1ccccc1)C2(C)C (stereo not drawn)	-19%	-8%
COc1ccc(N(C)C(=O)c2cc(S(=O)(=O)N3CCc4ccccc43)cn2C)c(OC)c1	-10%	i
Cc1ccc(C2(COC(=O)C(C)C)CO2)c(OC(=O)C(C)C)c1 (stereo not drawn)	-5%	-7%
COc1ccc(NS(=O)(=O)c2ccc(OC)c3ccccc23)cn1	-25%	-23%
COc1ccc(OC)c(CNC(=O)c2ccc3c(c2)c(C)c(C)n3Cc2ccc(Cl)cc2)c1	-18%	-28%
O=C1CCCC/C1=N\Nc1ccc(OCc2ccccc2)cc1	4%	-23%
COc1cc(OC)c2c(c1)OC(c1ccc(OC)c(OC)c1)C(O)C2=O (stereo not drawn)	-7%	-13%
CC1(C)CN(c2ccccc2)N(C(=O)c2ccc(C#N)cc2)C1=O	-14%	-22%
COC(=O)c1sccc1NC(=O)CC1C(=O)NCCN1C(=O)c1ccccc1 (stereo not drawn)	-14%	-1%
Cc1ccc(S(=O)(=O)N2CCN(C(=O)Cn3c(=O)oc4ccccc43)CC2)cc1	-21%	i
COc1cccc(CN(C)C(=O)CSC(C)C(=O)Nc2cc(C)on2)c1OC (stereo not drawn)	-17%	-1%
COC(=O)c1ccccc1Nc1cc(C)nc2nc(C)nn12	-2%	-4%
Cc1cc(C)c2oc(-c3ccc(Cl)c(NC(=O)c4ccc(C#N)cc4F)c3)nc2c1	2%	x
COC(=O)[C@H](Cc1c[nH]c2ccccc12)NC(=O)NCc1ccc(OC)cc1	-7%	-5%
COc1cccc(CNn2c(-c3cccc(C)c3)nc3ccccc3c2=O)c1O	-14%	i
Cc1ccc(C)c(OCC(=O)Nc2ccc(N3CCOCC3)cc2)c1	-7%	-2%
CCCCN(CC)CCCNC(=O)c1cn(CC)c2ccc(S(=O)(=O)N3CCc4ccccc4C3)cc2c1=O	-20%&-25%	u
CC(NC(=O)Nc1ccc(F)cc1)C(c1cccs1)N1CCCC1 (stereo not drawn)	-10%	-19%
COc1ccc(OCC(O)CN(C2CCCCC2)C2CCCCC2)cc1 (stereo not drawn)	-17%	-23%
CCOC(=O)C1(Cc2cccc(OC)c2)CCCN(C(=O)CCSC)C1 (stereo not drawn)	-7%	-17%
CC(=O)Nc1ccc(S(=O)(=O)NCCc2csc3nc(-c4ccc(Cl)cc4)nn23)cc1	-24%	-3%
NC1=C(Br)C(=O)c2ccccc2C1=O	u	-49%
O=C(NNc1c2ccccc2nc2ccccc12)c1ccc(O)cc1O	u	x
O=C(CSc1nc(-c2ccco2)cc(C(F)(F)F)n1)NCCc1ccccc1	-3%	x

In the list so far, these have four or more nitrogen atoms.
SMILES	VACV Venus inh	VACV mCherry inh
C#CCOCCOCCOCCNc1nc(OC)nc(N2CCN(C(=O)[C@H](CCC(=O)O)n3cc(C(N)CO)nn3)CC2)n1 (stereo partly drawn)	-2%	-6%
Cc1nc(NC(=O)CSC2=NCCS2)sc1C(=O)N(C)C	u	u
O=C(NCCc1c[nH]c2ccccc12)c1cnc2sccn2c1=O	-13%	-8%
O=C(Nc1nnc([C@@H]2C[C@H](O)[C@@H](CO)O2)s1)Nc1cccc2c1CCCC2	-7%	i
CCCCCCN1CCN(C2CN(Cc3cn(Cc4cc(C)cc(C)c4)nn3)S(=O)(=O)C2)CC1 (stereo not drawn)	-13%	5%
CCn1c(O)c(N=NC(=O)CNC(=O)c2ccco2)c2ccccc21	u	-23%
CCn1cc(C(=O)Nc2ccc(C)c([N+](=O)[O-])c2)cn1	-8%	-22%
N#CCCn1cc(C(=O)Nc2ccccn2)c(-c2ccccc2)n1	2%	-11%
Cc1ccc(S(=O)(=O)N(CC(=O)Nc2cccc(C)c2C)C(=O)N2CCN(C)CC2)cc1	-12%	i
C#CCN(C[C@H]1[C@H](OC(=O)NCCCCCC)[C@H](OC(=O)NCCCCCC)C[C@H]2C(=O)N(c3ccccc3)C(=O)[C@@H]12)S(=O)(=O)c1ccc(C)cc1	-22%	-7%
O=C(NCc1cccnc1)c1cnn(-c2nccc(-c3cccs3)n2)c1C1CC1	-12%	-27%
COc1ccc(-c2nnc(Nc3ccc(OC)c(C(=O)N4CCCCC4)c3)c3ccccc23)cc1	u	-16%
Cc1cc(C)nc(N(C#N)Cc2ccc([N+](=O)[O-])cc2)n1	-9%	-4%
COC(=O)c1ccccc1Nc1cc(C)nc2nc(C)nn12	-2%	-4%
CCCCN(CC)CCCNC(=O)c1cn(CC)c2ccc(S(=O)(=O)N3CCc4ccccc4C3)cc2c1=O	-20%&-25%	u
CC(=O)Nc1ccc(S(=O)(=O)NCCc2csc3nc(-c4ccc(Cl)cc4)nn23)cc1	-24%	-3%

In the list so far, three have two or more sulfur atoms:
SMILES	VACV Venus inh	VACV mCherry inh
Cc1nc(NC(=O)CSC2=NCCS2)sc1C(=O)N(C)C	u	u
O=S(=O)(Nc1cccnc1)c1cccs1	-7%	-15%
CC(=O)Nc1ccc(S(=O)(=O)NCCc2csc3nc(-c4ccc(Cl)cc4)nn23)cc1	-24%	-3%
